Anaer choline gr – choline-fed anaerobic bacterial growth inhibition. calls only. AID 1963822. Gram-negative bacterium anaerobic choline minimal medium, absorbance growth; hits give low values; many inactives read as strong as hits in the columns shown. actives 0.2% (n = 55,000);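 active = growth z-score on choline under -2 at 7 or 20 h with little or no fall on glycerol, limits in tiers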;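 note: stock transfer was 300 nL into about 50 µL; the organism is E. coli; final concentration not given here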
Anaer choline gr early – further read-out of Anaer choline gr, marked with its call; z-score; measured here: choline growth z-score, timepoint 1;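 score of optical density at 7 h as mean of two plates; lower means less growth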
Active calls of the source: *. The list is partial, so the mix of outcomes need not match the whole.

`O=C(Nc1cccc(OCc2cc(=O)n3ccccc3n2)c1)c1ccccc1Cl` gave Anaer choline gr inactive and Anaer choline gr early 3.2.
For CC(C)c1cc(C2CCCN2C(=O)c2cc(-c3ccc4c(c3)OCO4)on2)no1 (stereo not given) the results were Anaer choline gr inactive and Anaer choline gr early -0.32.
Screening COc1ccc(C2CC(c3ccc(OC)c(OC)c3)=NN2c2nc(C)cs2)cc1 (stereo not given) returned Anaer choline gr inactive and Anaer choline gr early 0.85.
For CC1CCN(c2nc3ccc(C(=O)NCc4ccccc4Br)cc3s2)CC1 the results were Anaer choline gr inactive and Anaer choline gr early -0.3.
Screening CCOCCCNC(=O)c1cccc(Nc2ccnc(-c3cccc(C)c3)n2)c1 returned Anaer choline gr inactive and Anaer choline gr early -0.03.
Screening COCCNCc1ccc(-c2cc(Cl)cc(Cl)c2)o1 returned Anaer choline gr inactive and Anaer choline gr early 0.01.
For NS(=O)(=O)c1cccc2c1c([N+](=O)[O-])cc1[nH]c(=O)c(=O)[nH]c12 the results were Anaer choline gr inactive and Anaer choline gr early 0.61.
For CC1CC(=O)Nc2cc(S(=O)(=O)CCC(=O)NC3CC3)ccc2S1 (stereo not given) the results were Anaer choline gr inactive and Anaer choline gr early -0.21.
For COc1ccccc1CNC(=O)Cn1cccc1C(=O)c1ccccc1C the results were Anaer choline gr inactive and Anaer choline gr early 1.
For Cc1cc(C)cc(NC(=O)N2Cc3c(sc4c3CCN(C)C4)-n3cccc3C2c2ccc(F)cc2)c1 (stereo not given) the results were Anaer choline gr inactive and Anaer choline gr early 0.19.
`CCc1ccc(N(CC)C(=O)Cc2c(C(=O)O)n(C)c3ccccc23)cc1` gave Anaer choline gr inactive and Anaer choline gr early 0.29.
CCCCNC(=O)c1ccc(-n2nnc3cccnc32)cc1 was read as Anaer choline gr inactive and Anaer choline gr early 0.61.
Screening COc1cccc(-c2ccc(=O)n(CCc3nc(-c4ccc(Br)cc4)no3)n2)c1 returned Anaer choline gr inactive and Anaer choline gr early -0.76.
For Cc1cc(=O)[nH]c(-n2nc(C)cc2NC(=O)c2ccc(F)cc2)n1 the results were Anaer choline gr inactive and Anaer choline gr early -1.6.
Screening CCCOc1ccccc1C(=O)NCc1csc(-c2ccc(OC)cc2)n1 returned Anaer choline gr inactive and Anaer choline gr early 1.1.
Screening CCc1ccccc1NC(=O)CN1CCN(Cc2cccc(Cl)c2)S1(=O)=O returned Anaer choline gr inactive and Anaer choline gr early -1.1.
`CCn1nccc1NC(=O)COc1ccc(Cl)cc1C` gave Anaer choline gr inactive and Anaer choline gr early 0.73.
Screening CCn1cnc(S(=O)(=O)N2CCC(C(=O)NCC3CCCO3)CC2)c1 (stereo not given) returned Anaer choline gr inactive and Anaer choline gr early 0.24.
`Cc1cc(C)nc(-n2nc(C)c3c2NC(=O)CC3c2ccccc2)n1` (stereo not given) gave Anaer choline gr inactive and Anaer choline gr early -2.7.
Screening O=C1CC2(CCCCC2)Oc2cc(O)ccc21 returned Anaer choline gr inactive and Anaer choline gr early 0.11.
For CC(C)Oc1ccc(-c2noc(-c3nn(-c4ccc(Cl)cc4)ccc3=O)n2)cc1 the results were Anaer choline gr inactive and Anaer choline gr early 1.6.
CC1CCC(NC(=O)C2(C)Cn3c(nc4ccccc43)C(=O)N2CCCOC(C)C)CC1 (stereo not given) was read as Anaer choline gr inactive and Anaer choline gr early -2.3.
`CC(C)Cc1ccc(S(=O)(=O)Nc2cc(C(=O)O)cnc2N(C)C)cc1` gave Anaer choline gr inactive and Anaer choline gr early -0.45.
Screening CCSc1ncc2c(=O)n(CC(=O)NC(C)CC)cnc2n1 (stereo not given) returned Anaer choline gr inactive and Anaer choline gr early -0.87.
COc1ccc(N2C(=O)Cc3cc(OC)c(OC)cc3C2c2ccc(F)cc2)cc1 (stereo not given) was read as Anaer choline gr inactive and Anaer choline gr early 0.7.
`O=C(NCc1ccc2c(c1)OCO2)c1nnc(-c2ccc(S(=O)(=O)N3CCCC3)cc2)o1` gave Anaer choline gr inactive and Anaer choline gr early 0.38.
For CCC1CCCCN1S(=O)(=O)c1cc(-c2nc(-c3ccc(Cl)cc3)no2)cs1 (stereo not given) the results were Anaer choline gr inactive and Anaer choline gr early -0.53.
For Cc1ccc2c(CC(=O)Nc3sc4c(c3C(=O)NCC3CCCO3)CCC4)coc2c1C (stereo not given) the results were Anaer choline gr inactive and Anaer choline gr early 0.42.
For Cc1ccc(C)c(N2CCN(C(=O)c3cc(S(=O)(=O)N4CCCC4)ccc3Cl)CC2)c1 the results were Anaer choline gr inactive and Anaer choline gr early -0.34.
COC(=O)c1ccc(NC(=O)c2sc3nc(C)cc(=O)n3c2C(=O)Nc2cccc(OC)c2)cc1 was read as Anaer choline gr inactive and Anaer choline gr early 0.42.

Twelve entries from above, ordered by formula weight, ascending.
Screening O=C1CC2(CCCCC2)Oc2cc(O)ccc21 returned Anaer choline gr inactive and Anaer choline gr early 0.11.
`CCn1nccc1NC(=O)COc1ccc(Cl)cc1C` gave Anaer choline gr inactive and Anaer choline gr early 0.73.
`Cc1cc(C)nc(-n2nc(C)c3c2NC(=O)CC3c2ccccc2)n1` (stereo not given) gave Anaer choline gr inactive and Anaer choline gr early -2.7.
Screening CCn1cnc(S(=O)(=O)N2CCC(C(=O)NCC3CCCO3)CC2)c1 (stereo not given) returned Anaer choline gr inactive and Anaer choline gr early 0.24.
`CC(C)Cc1ccc(S(=O)(=O)Nc2cc(C(=O)O)cnc2N(C)C)cc1` gave Anaer choline gr inactive and Anaer choline gr early -0.45.
COc1ccc(N2C(=O)Cc3cc(OC)c(OC)cc3C2c2ccc(F)cc2)cc1 (stereo not given) was read as Anaer choline gr inactive and Anaer choline gr early 0.7.
Screening CCc1ccccc1NC(=O)CN1CCN(Cc2cccc(Cl)c2)S1(=O)=O returned Anaer choline gr inactive and Anaer choline gr early -1.1.
For CC(C)Oc1ccc(-c2noc(-c3nn(-c4ccc(Cl)cc4)ccc3=O)n2)cc1 the results were Anaer choline gr inactive and Anaer choline gr early 1.6.
For CCC1CCCCN1S(=O)(=O)c1cc(-c2nc(-c3ccc(Cl)cc3)no2)cs1 (stereo not given) the results were Anaer choline gr inactive and Anaer choline gr early -0.53.
For Cc1ccc2c(CC(=O)Nc3sc4c(c3C(=O)NCC3CCCO3)CCC4)coc2c1C (stereo not given) the results were Anaer choline gr inactive and Anaer choline gr early 0.42.
For Cc1ccc(C)c(N2CCN(C(=O)c3cc(S(=O)(=O)N4CCCC4)ccc3Cl)CC2)c1 the results were Anaer choline gr inactive and Anaer choline gr early -0.34.
COC(=O)c1ccc(NC(=O)c2sc3nc(C)cc(=O)n3c2C(=O)Nc2cccc(OC)c2)cc1 was read as Anaer choline gr inactive and Anaer choline gr early 0.42.

(more compounds)
COC(=O)C1=CN(c2ccc3c(c2)OCO3)c2cc(Br)ccc2S1(=O)=O was read as Anaer choline gr inactive and Anaer choline gr early -0.29.
For Cc1ccc(CN2CCN(C3CCN(S(=O)(=O)c4cc(C)ccc4C)CC3)C(=O)C2=O)cc1 the results were Anaer choline gr inactive and Anaer choline gr early 0.32.
Screening CNC(=O)c1c(NC(=O)c2ccc(S(=O)(=O)N3CCCC3)cc2)sc2c1CCC2 returned Anaer choline gr inactive and Anaer choline gr early -0.94.
`CC(C)[C@H](C(=O)Nc1ccc(C(=O)NO)cc1)c1ccccc1` gave Anaer choline gr inactive and Anaer choline gr early 0.47.
`CN1C(=O)C(c2c(-c3ccc(Br)cc3)[nH]c3[nH]c(=O)[nH]c(=O)c23)c2ccccc21` (stereo not given) gave Anaer choline gr inactive and Anaer choline gr early -0.1.
For O=C(c1ccc2c(c1)OCO2)N1CCN(c2ccc(-c3noc(C4CCC4)n3)cc2)CC1 the results were Anaer choline gr inactive and Anaer choline gr early 0.81.
For CC(C)c1csc(C2CCCN(C(=O)C(C)(C)C)C2)n1 (stereo not given) the results were Anaer choline gr inactive and Anaer choline gr early 0.71.
For NC[C@H]1O[C@H](OC2[C@@H](N)C[C@@H](N)[C@H](O)[C@H]2O[C@@H]2O[C@H](CO)[C@@H](O)[C@H]2O)[C@H](N)[C@@H](O)[C@@H]1O (stereo not given in full) the results were Anaer choline gr inactive and Anaer choline gr early 0.64.
CCN1CCN(c2nc3ncn(CC(=O)Nc4ccccc4)c(=O)c3s2)CC1 was read as Anaer choline gr inactive and Anaer choline gr early -0.44.
For O=c1[nH]cnc2cc(-c3ccccc3)sc12 the results were Anaer choline gr inactive and Anaer choline gr early -0.04.
For Cc1ccc2[nH]cc(CCN3CC(C(=O)Nc4nnc(CC(C)(C)C)s4)CC3=O)c2c1 (stereo not given) the results were Anaer choline gr inactive and Anaer choline gr early 0.66.
Screening COc1ccc(C(Nc2cccc(C)n2)c2cc(C)sc2NC(=O)c2ccccc2)cc1 (stereo not given) returned Anaer choline gr inactive and Anaer choline gr early 1.2.
For COC(=O)c1cnc(N2CCOCC2)c2ccccc12 the results were Anaer choline gr inactive and Anaer choline gr early -1.8.
Cn1c(=O)[nH]c(=O)c2c(C3C(=O)Nc4ccccc43)c(-c3ccc4ccccc4c3)[nH]c21 (stereo not given) was read as Anaer choline gr inactive and Anaer choline gr early 0.66.
For Cc1nn(C)c(C)c1CNC(=O)c1cnn2c(C(F)(F)F)cc(-c3ccc(Br)cc3)nc12 the results were Anaer choline gr inactive and Anaer choline gr early -1.1.
`CCOC(=O)c1cc(C2CC2)nc2c1c(=O)n(Cc1cc(=O)n3cc(Cl)ccc3n1)c(=O)n2C` gave Anaer choline gr inactive and Anaer choline gr early 0.02.
Screening CCOc1ccccc1NC(=O)CSC1=Nc2ccccc2N=C(c2ccccn2)C1 returned Anaer choline gr inactive and Anaer choline gr early 1.6.
`O=C(Nc1cccc(F)c1)C1CCN(c2ccc3cc(S(=O)(=O)N4CCCCC4)ccc3n2)CC1` gave Anaer choline gr inactive and Anaer choline gr early 1.5.
Screening CCCCNC(=O)c1nnc(C(=O)Nc2cccc(Cl)c2)s1 returned Anaer choline gr inactive and Anaer choline gr early -0.22.
CCOc1ccc(N2C(=O)c3cc4ccsc4n3CC2(C)C(=O)NC2CCCCC2)cc1 (stereo not given) was read as Anaer choline gr inactive and Anaer choline gr early 1.1.
For CC(C)c1ccc(N2C(=O)N3CCCN3C2c2ccccc2)cc1 (stereo not given) the results were Anaer choline gr inactive and Anaer choline gr early 0.01.
Screening Cc1cc(N2CCCC2)n2nc(CN3CCC4(CC3)OCCO4)nc2n1 returned Anaer choline gr inactive and Anaer choline gr early -0.62.
Screening Cc1cc(N2C(=O)CCS2(=O)=O)cc(C)c1S(=O)(=O)NC1CCS(=O)(=O)C1 (stereo not given) returned Anaer choline gr inactive and Anaer choline gr early -0.87.
Screening CCn1nc(C)c(CCNC(=O)c2cc3c(=O)n(CCOC)ccc3nc2C)c1C returned Anaer choline gr inactive and Anaer choline gr early -0.51.
CCOc1ccc(NC(=O)Nc2ccc(-c3nc4ccccc4s3)c(Cl)c2)cc1 was read as Anaer choline gr inactive and Anaer choline gr early -0.47.
`COC(=O)c1ccccc1NC(=O)COCc1cc(-c2ccc3c(c2)OCO3)on1` gave Anaer choline gr inactive and Anaer choline gr early -1.2.
CC(C)CNc1oc(-c2ccc(S(=O)(=O)N3CCC(C)CC3)cc2)nc1C#N was read as Anaer choline gr inactive and Anaer choline gr early -0.01.
`CCSc1nnc(-c2nn(C)c3c2CN(S(=O)(=O)c2ccc(C)cc2C)CC3)n1C` gave Anaer choline gr inactive and Anaer choline gr early -0.49.
For CCOc1ccc(NC(=O)NCCCn2c(-c3ccc(F)cc3)nc3cccnc32)cc1 the results were Anaer choline gr inactive and Anaer choline gr early -0.42.
Screening COC(=O)c1cccc(NC(=O)NCc2ccc3c(c2)N(C(=O)c2ccc(OC)cc2)CC3)c1 returned Anaer choline gr inactive and Anaer choline gr early -0.51.
`O=c1cc(Cn2c(=O)n3nc(-c4ccccc4)nc3c3ccccc32)nc2ccc(Cl)cn12` gave Anaer choline gr inactive and Anaer choline gr early 0.39.
Screening O=C(c1cc2n(n1)CCCN(Cc1ccccc1)C2=O)N1CCOCC1 returned Anaer choline gr inactive and Anaer choline gr early -1.5.
Screening O=C(CCc1nc(CSc2nc3ccccc3o2)no1)Nc1nccs1 returned Anaer choline gr inactive and Anaer choline gr early -0.18.
`CCCN(C)S(=O)(=O)c1cc(-c2nnc(CC)o2)co1` gave Anaer choline gr inactive and Anaer choline gr early -3.
Screening Cc1nnc(NC(=O)CSc2nnc3[nH]c(=O)cc(-c4ccccc4)n23)s1 returned Anaer choline gr inactive and Anaer choline gr early 0.84.
O=C(Nc1ccc2c(c1)OCO2)c1nnc(C(=O)N2CCCC(C(=O)NCCC3=CCCCC3)C2)s1 (stereo not given) was read as Anaer choline gr inactive and Anaer choline gr early 0.43.
Screening Cc1oc(-c2cccc(Cl)c2)nc1Cn1nnc(-c2nc(-c3ccc(F)cc3)no2)c1C returned Anaer choline gr inactive and Anaer choline gr early -0.57.
For Cn1c(CN(c2ccc(F)cc2)S(C)(=O)=O)nnc1SCC(=O)Nc1cc(F)ccc1F the results were Anaer choline gr inactive and Anaer choline gr early 0.45.
Screening COC(=O)C1CCN(C(=O)CSc2nnc(-c3cc4ccccc4o3)n2-c2ccccc2)CC1 returned Anaer choline gr inactive and Anaer choline gr early 0.34.
`Cc1ccc(CNC(=O)C2CCCN(S(=O)(=O)Cc3ccccc3)C2)cc1` (stereo not given) gave Anaer choline gr inactive and Anaer choline gr early 0.83.
For CC(CCc1ccccc1)NC(=O)CSc1nc(-c2ccc3c(c2)OCO3)nc2cc(=O)[nH]n12 (stereo not given) the results were Anaer choline gr inactive and Anaer choline gr early -1.5.
Screening O=C(C1CCCN(c2nc3ncccc3n3cccc23)C1)N1CCCCC1 (stereo not given) returned Anaer choline gr inactive and Anaer choline gr early -1.8.
CCOc1ccc(Nc2nc(C)c(NC(=O)c3cc(OC)cc(OC)c3)c(Nc3ccc(OCC)cc3)n2)cc1 was read as Anaer choline gr inactive and Anaer choline gr early 1.9.
For COc1ccc(-c2nc(SCC(=O)Oc3ccc(Cl)cc3)n3[nH]c(=O)cc3n2)cc1 the results were Anaer choline gr inactive and Anaer choline gr early -0.67.
For COC(=O)c1ccc2c(c1)N(Cc1ccccc1)C(=O)CS2 the results were Anaer choline gr inactive and Anaer choline gr early -0.27.
